MT1-MMP promoter: MT1-MMP gene expression reporter suppression – cell-based, luciferase reporter, luminescence (AID 618). calls from a first round at 10 µM; hits with a dose series show EC50 in µM. MT1-MMP promoter luciferase reporter cells, luminescence. 0.62% of 87,000 active;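 active = over half of the reporter light lost at 10 µM or EC50 under 50 µM; inactive = the rest and hits that failed the dose series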;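 note: actives suppress MT1-MMP promoter-driven transcription so potencies describe inhibitors; HT1080 fibrosarcoma cells; overnight exposure; toxic or luciferase-blocking compounds were not removed from the actives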
WNV protease inh: WNV NS2B-NS3 proteinase inhibition; AID 577; 0.18% of 65,000 active; z-score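 (tested at a level between 10 and 100 µM)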; WNV NS2B-NS3 protease, fluorogenic substrate Ex360/Em465; active compounds read low; P06935;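 active = z-score at -3 or under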;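 note: score is relative to mean and spread of the compound wells of a plate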
* = called active by the depositor; i = inactive; · = not tested or not shown. An excerpt (hit frequency here may not be typical).

SMILES	MT1-MMP promoter	WNV protease inh
O=C(NCCc1c[nH]c2ccccc12)c1cccnc1	·	1.43
CCOc1ccc(NC(=O)Cn2cc(C(=O)c3ccco3)c3ccccc32)cc1	i	·

High-throughput results (PubChem BioAssay)
